Source: PubChem BioAssay (National Center for Advancing Translational Sciences (NCATS))
Six1-Eya2 inh: Six1/Eya2 interaction inhibition | AlphaScreen GST-Six1/His-Eya2 binding, biochemical; active compounds read low; control for the full effect not named in the record | 360,000 tested, 0.56% active | activity change, % (test concentration not listed) | AID 651725; in the data active = activity change below about -65%; inconclusive = about -30% to -65%; inactive = above about -30%; also: % is scaled to controls: 0 for no effect and ±100 for the full control effect
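Six1/Eya2 binding was read as AlphaScreen signal after compounds were pinned into GST-Six1 plus His-tagged Eya2 (5X stock 250/500 nM) in pH 8.0 Tris/NaCl/TCEP buffer, beads added, then incubated 1 h, 37 C, dark.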
TRPML1 ag: human mucolipin-1 channel agonism; 410,000 tested, 0.12% active; Q9GZU1; TRPML1-expressing cells, Ca2+ dye fluorescence, FDSS; host cell line not named in the record; reference of the full effect not given here; activation, % (no concentration beside the values); in the data active = activation above about 50%; inconclusive = about 30% to 50%; inactive = below about 30%; also: 0% is about no effect; the text of the record puts the active cut at 80%
Target sequence (Q9GZU1 whole entry, looked up): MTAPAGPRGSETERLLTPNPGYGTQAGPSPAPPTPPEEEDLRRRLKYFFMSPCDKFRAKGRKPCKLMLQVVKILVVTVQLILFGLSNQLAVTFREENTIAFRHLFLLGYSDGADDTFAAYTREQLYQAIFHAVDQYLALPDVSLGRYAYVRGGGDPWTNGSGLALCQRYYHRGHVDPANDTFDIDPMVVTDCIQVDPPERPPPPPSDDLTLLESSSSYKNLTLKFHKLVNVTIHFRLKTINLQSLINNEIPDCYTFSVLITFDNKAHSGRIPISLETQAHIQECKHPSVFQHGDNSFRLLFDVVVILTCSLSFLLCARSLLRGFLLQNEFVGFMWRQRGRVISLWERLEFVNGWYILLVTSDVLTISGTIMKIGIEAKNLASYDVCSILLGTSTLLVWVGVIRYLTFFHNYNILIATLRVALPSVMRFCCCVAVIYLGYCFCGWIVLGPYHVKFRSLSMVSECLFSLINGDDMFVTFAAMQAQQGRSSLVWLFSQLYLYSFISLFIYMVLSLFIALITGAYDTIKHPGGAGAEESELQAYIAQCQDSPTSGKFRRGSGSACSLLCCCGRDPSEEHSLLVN
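Calcium fluorescence on an FDSS kinetic reader gave the read-out. Tet-induced TRPML1-DL cells were plated overnight, dye-loaded (Ca8 with quencher, 45-90 min, room temperature, dark), then read 110 s after compound addition, and again 110 s after 4uM final 54-4 (EC80).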
D2 agonist: activates the human D2 dopamine receptor. DiscoveRx PathHunter D2 beta-arrestin, luminescence, 90 min; 100% = 57 uM dopamine signal. activation, % (concentration not given with the values). 360,000 tested, 0.084% active. AID 624465; in the data active = activation above about 40%; inconclusive = about 15% to 40%; inactive = below about 15%; also: compound concentration not given in the record; the text of the record calls up to 30% inactive
Target sequence (P14416 whole entry, looked up): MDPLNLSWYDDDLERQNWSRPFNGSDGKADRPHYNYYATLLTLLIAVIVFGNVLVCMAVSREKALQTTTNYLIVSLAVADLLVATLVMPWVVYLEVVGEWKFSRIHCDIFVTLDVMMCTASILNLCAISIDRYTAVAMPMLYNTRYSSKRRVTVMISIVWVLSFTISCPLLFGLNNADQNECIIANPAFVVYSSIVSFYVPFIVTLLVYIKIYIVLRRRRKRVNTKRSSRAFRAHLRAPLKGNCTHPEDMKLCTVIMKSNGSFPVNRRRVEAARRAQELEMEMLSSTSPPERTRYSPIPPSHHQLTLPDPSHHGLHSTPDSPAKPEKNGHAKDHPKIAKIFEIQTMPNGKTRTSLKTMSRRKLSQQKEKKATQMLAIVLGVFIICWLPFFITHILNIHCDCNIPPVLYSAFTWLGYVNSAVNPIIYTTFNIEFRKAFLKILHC
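Agonist mode: compounds alone added to overnight-plated D2 PathHunter cells for 90 min at 37 C, with 57 uM final dopamine (EC100) defining full response. Beta-arrestin recruitment detected by chemiluminescent reagent, read after 1 h at ambient temperature.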
D2 PAM: positive allosteric modulators of human D2 dopamine receptor | DiscoveRx D2 beta-arrestin cells, luminescence, 90 min; 100% = 57 uM dopamine signal | 360,000 tested, 0.23% active | potentiation, % (concentration not given with the values) | P14416; active = potentiation of 50% or more; inconclusive = 30% to 50%; inactive = 30% or less;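 also: compound concentration not given in the record; tested on top of an EC20 dose of dopamine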
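PathHunter D2 cells, attached overnight at 37 deg C, received compound in DMSO plus dopamine at EC20 (50 nM final) for 90 min at 37 deg C. Beta-arrestin recruitment was read as luminescence after 1 h with detection reagent at ambient temperature.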
CtBP-E1A inh: CtBP/E1A binding inhibition | AlphaScreen GST-E1A/His-CtBP binding, 1536-well; active compounds read low; control for the full effect not named in the record | activity change, % (no concentration beside the values) | 340,000 tested, 0.49% active; in the data active means activity change below about -65%; inconclusive means about -30% to -65%; inactive means above about -30%; also: % is scaled to controls: 0 for no effect and ±100 for the full control effect
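Protein mix (5X: 125 nM each GST-E1A, His-CtBP) was incubated with pinned compound 2 h at 37 deg C in dark, in 50 mM Tris pH 8.0 buffer with 300 mM NaCl. Glutathione donor and nickel acceptor beads followed; AlphaScreen signal read after 1 h.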
PINK1 modulator: modulators of PINK1 expression; PINK1 immunofluorescence, high-content cytometry, 24 h; Potency, µM (top dose mostly 76.6 µM), inactives show top-dose activation (PINK1 increase), hits mostly activators; 410,000 tested, 0.2% active; active = well fitted activation curve with a large enough effect; inconclusive = small, poorly fitted or top-dose-only effect; inactive = flat fitted curve, though single readings scatter; cell line not stated here;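 also: potency is read from the fitted curve at half-maximal effect; % of control where 0% means no effect; nearly all actives have a fitted effect of over 65% in size; a mitochondrial uncoupler was the plate control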
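PINK1 protein, normally rapidly degraded, was detected by immunofluorescence after 24 hour compound treatment of a stable cell line. Titration data (5 concentrations) came from laser-scanning cytometry, with CCCP-treated wells as controls.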
* hit, by the source's call; ? = inconclusive; nt = no result given; & = joins results of further samples; [ ] = remark or other dose.

SMILES	Six1-Eya2 inh	TRPML1 ag	D2 agonist	D2 PAM	CtBP-E1A inh	PINK1 modulator
COc1ccc(NS(=O)(=O)c2ccc3c(c2)NC(=O)CO3)cc1	5	-0.4	5.5	5	-6	2.2%
Cc1ccc(S(=O)(=O)NCc2ccc(C(=O)N3CCN(Cc4ccccc4)CC3)cc2)cc1	-5	0.3	5.6	-14	7	-2.2%[38.3 µM]
COc1ccccc1/C=C/C(=O)c1ccc(NC(C)=O)cc1	10	0.0	2.9	-12	2	-3.3%
CC(C)OCC1CO1 (stereo not given)	15	-0.2	4.7	-1	32	4.1%
Cc1ccccc1Nc1cc(C)c2c(O)cccc2n1	3	-1.0	-6.0	-3	4	1.0%
O=C(c1cccs1)N1CCC2(O)CCCCC2C1c1ccc(F)cc1 (stereo not given)	5	0.4	2.7	7	4	-0.4%
O=C(CCc1ccccc1)NNC(=O)COc1ccccc1	1	0.5	-2.0	3	4	-1.1%[38.3 µM]
c1ccc(C2[C@H]3CN(Cc4cccnc4)[C@H](c4ccccc4)C34CC2(c2ccccc2)C4)cc1 (stereo not given in full)	-12	0.5	-2.5	-16	-5	?
CCNC(=O)NC(=O)COC(=O)CCCSc1nc2ccccc2s1	-4	0.8	-2.2	-18	-7	1.1%
CCN1CC2=C(OC(N)=C(C#N)C2c2cccs2)/C(=C\c2cccs2)C1 (stereo not given)	?	-0.3	0.4	-22	?	-4.2%[38.3 µM]
Cc1ccc(NC(=O)c2ccc3c(c2)OCO3)cc1Cl	8	-1.3	2.1	-6	nt	3.2%
COc1ccc(-c2nnc(N(C)C(=O)C3CCOC3)s2)cc1 (stereo not given)	2	-0.5	-2.5	-6	6	1.8%
CCn1cc(CN2CCN(Cc3ccc(C)o3)C(CCO)C2)c2ccccc21 (stereo not given)	-13	0.0	-2.9	-14	-8	-1.6%
O=C(O)C12C[C@H]3C[C@@H](C1)CC(n1ncc(N4CCN(c5ccccc5)CC4)c(Cl)c1=O)(C3)C2	6	0.7	0.6	-1	9	0.2%
Cc1ccccc1NC(=O)Cn1c(O)c(N=NC(=O)c2ccccc2O)c2ccccc21	-10	-0.4	-5.2	-13	1	-0.3%
COc1ccc(-c2cc(-c3ccccc3)no2)cc1	23	-0.6	1.4	-8	14	1.4%
N#Cc1ccc(S(=O)(=O)N2CCC(C(=O)Nc3cccc(C(=O)NC4CC4)c3)CC2)cc1	-1	2.0	0.6	0	8	0.7%
COc1cc(/C=N/Nc2nnc3c(n2)[nH]c2ccccc23)ccc1O	-29	0.8	2.2	-15	?	10%
CCN(CC)S(=O)(=O)c1ccc(N2CCCC2)c(NC(=O)CSCc2c(C)noc2C)c1	10	-0.6	-2.1	-3	3	2.5%
CCC(CO)Oc1cc(NC(=O)Cc2ccccc2)c2ncn(C(C)C)c2c1 (stereo not given)	0	1.0	-1.3	-5	3	1.5%

Rewritten in markdown: entries from further up
| structure | Six1-Eya2 inh | TRPML1 ag | D2 agonist | D2 PAM | CtBP-E1A inh | PINK1 modulator |
| --- | --- | --- | --- | --- | --- | --- |
| COc1ccc(NS(=O)(=O)c2ccc3c(c2)NC(=O)CO3)cc1 | 5 | -0.4 | 5.5 | 5 | -6 | 2.2% |
| Cc1ccc(S(=O)(=O)NCc2ccc(C(=O)N3CCN(Cc4ccccc4)CC3)cc2)cc1 | -5 | 0.3 | 5.6 | -14 | 7 | -2.2%[38.3 µM] |
| COc1ccccc1/C=C/C(=O)c1ccc(NC(C)=O)cc1 | 10 | 0.0 | 2.9 | -12 | 2 | -3.3% |
| CC(C)OCC1CO1 (stereo not given) | 15 | -0.2 | 4.7 | -1 | 32 | 4.1% |
| Cc1ccccc1Nc1cc(C)c2c(O)cccc2n1 | 3 | -1.0 | -6.0 | -3 | 4 | 1.0% |
| O=C(c1cccs1)N1CCC2(O)CCCCC2C1c1ccc(F)cc1 (stereo not given) | 5 | 0.4 | 2.7 | 7 | 4 | -0.4% |

(further entries)
SMILES	Six1-Eya2 inh	TRPML1 ag	D2 agonist	D2 PAM	CtBP-E1A inh	PINK1 modulator
CN(C)c1ccc(/C=C(/C#N)C(=O)NCc2ccccc2)o1	-2	20	-4.3	-30	-2	?
O=C(c1ccccc1)c1ccc2c(c1)OCCOCCOCCOCCO2	6	3.6	-2.8	-7	2	0.6%
O=C(CSc1nc2c(c(=O)n1-c1ccccc1)SCC2)N1CCN(c2ccccc2)CC1	-4	1.0	2.2	8	-1	-0.5%
COc1ccc(/C=C(\NC(=O)c2ccccc2)C(=O)N/N=C/c2ccncc2)cc1	-1	0.8	0.5	3	12	?
CC1(C)Cc2c(sc(NC(=O)c3ccc(S(=O)(=O)N4CCCCCC4)cc3)c2C#N)C(C)(C)N1	1	-0.1	-4.2	2	-25	?
CC1(C)CC(CC(=O)O)(c2ccc(Cl)cc2)CCO1 (stereo not given)	0	0.4	-1.1	0	0	1.6%
Brc1ccc(-c2nnc(SCCC3OCCCO3)o2)cc1	20	1.4	-1.7	-2	13	1.1%
CC(C)=NNC(=O)c1c(O)c2ccccc2[nH]c1=O	-6	-0.6	1.1	-7	nt	40µM*
CC(C)c1cc(CNC(=O)C2CCC(=O)N(Cc3ccccc3F)C2)on1 (stereo not given)	2	-0.8	2.7	-24	7	2.1%
O=C(/C=C/c1ccco1)NCCc1ccccc1	-9	-0.3	-2.7	0	-3	-1.6%
CCc1ccc(NS(=O)(=O)c2ccc3[nH]cc(C(=O)N4CCc5ccccc54)c(=O)c3c2)cc1	-14	0.5	4.9	2	-8	-1.9%
CN(CCc1ccccc1)C(=O)c1ccc(NC(=O)Cc2ccc(NC(=O)C3CCCN(C(=O)C4CCC4)C3)cc2)cc1 (stereo not given)	-1	2.2	0.3	2	2	4.3%
Oc1ccccc1-c1nnc(SCCN2CCOCC2)n1Cc1ccccc1	0	-0.6	-3.1	-21	-2	0.0%
C=CCn1c(C)cc(C(=O)CSc2nnc(NC(C)C)s2)c1C	-11	0.0	-1.4	-14	-7	0.9%
CCCCN(C)CCNC(=O)C1CCCN(S(=O)(=O)c2cccc3nsnc23)C1 (stereo not given)	5	-0.1&0.1	-2.0	-32	9	0.2%&-0.2%
CCn1c(=O)c2ccccc2n(Cc2ccccc2C)c1=O	5	-0.2	1.1	3	nt	1.8%
Cc1ccccc1NC(=S)NC(=O)C1CCCCC1	6	0.1	-0.4	1	5	1.0%
COCCN(CCOC)Cc1cc(=O)oc2cc(C)c(Cl)cc12	10	-0.2	-3.2	-4	-4	0.8%
COc1ccccc1OCc1n[nH]c(=S)n1Cc1ccccc1	-2	-0.4	-0.5	-21	5	1.1%
O=C(CSc1nnc(-c2ccncc2)n1-c1ccc(Cl)cc1)Nc1ccc(C(=O)O)cc1	6	0.3	-2.0	-15	-12	-0.6%

Quoted at random: 3 compounds from above, in no set order.
SMILES	Six1-Eya2 inh	TRPML1 ag	D2 agonist	D2 PAM	CtBP-E1A inh	PINK1 modulator
CC1(C)CC(CC(=O)O)(c2ccc(Cl)cc2)CCO1 (stereo not given)	0	0.4	-1.1	0	0	1.6%
CCn1c(=O)c2ccccc2n(Cc2ccccc2C)c1=O	5	-0.2	1.1	3	nt	1.8%
O=C(c1ccccc1)c1ccc2c(c1)OCCOCCOCCOCCO2	6	3.6	-2.8	-7	2	0.6%

Additional compounds follow:
SMILES	Six1-Eya2 inh	TRPML1 ag	D2 agonist	D2 PAM	CtBP-E1A inh	PINK1 modulator
COc1cccc(-n2c(C)c(C(C)=O)c(C(C)=O)c2C)c1	3	-1.1	-2.2	-11	9	0.0%
CC(=O)Nc1ccc(S(=O)(=O)N2CCCN(S(=O)(=O)c3ccc(NC(C)=O)cc3)CC2)cc1	-9	-0.7	-0.1	7	-9	-0.5%
Cc1ccc(C)c(Cn2cnc3c(oc4ccccc43)c2=O)c1	8	0.3	-0.2	-1	-14	-1.6%
COc1ccc(C)cc1NC(=O)NCCCCc1ccccc1	-2	-0.7	-3.7	-18	3	-1.0%
Cc1cc2c(cc(C(=O)OC(C(=O)NCC3CCCO3)C(C)C)n2C)o1 (stereo not given)	-1	2.4	-3.4	-3	-4	-1.2%
O=C(COC(=O)CCC(=O)c1cccs1)Nc1ccc(S(=O)(=O)N2CCOCC2)cc1	2	2.4	1.3	4	3	-0.8%
CC1(C)CC(=O)c2c(O)cc(OCC(=O)N3CCN(c4ccccc4)CC3)cc2O1	-7	nt	-5.6	-22	-29	-0.4%
COc1cccc(CN2CC(C(=O)N3CCSCC3)CCC2=O)c1 (stereo not given)	-3	-0.1	-0.4	1	0	-1.2%
Cc1cc(C)cc(N(CC(=O)NC2CCCC2)C(=O)CNC(=O)c2ccco2)c1	8	-0.2	0.0	0	5	-0.4%
O=C(Nc1ccc(F)c([N+](=O)[O-])c1)C(=O)c1c(O)[nH]c2ccccc12	0	0.3	-7.6	-8	-9	-1.0%
CCCC(NC(=O)C(C)N1CCN(S(=O)(=O)c2ccccc2)CC1)c1ccccc1 (stereo not given)	7	2.2	2.6	-17	-2	1.2%
O=C(O)c1ccccc1NS(=O)(=O)c1ccccc1C(F)(F)F	11	1.3	-1.0	4	1	4.7%[38.3 µM]
O=C(O)c1ccccc1N/N=C/C1=C(N2CCOCC2)C(=C\c2ccccc2)/CC1	0	3.0	0.1	-7	-2	30%
Cc1nnc(NC(=O)Cc2ccc(OCc3c(C)noc3C)cc2)s1	7	1.6	0.6	-3	-3	1.1%[38.3 µM]
COc1ccc(O)c(C(=O)CC(=O)c2ccc(F)cc2)c1	-19	0.8	-4.6	-25	-12	0.6%
CC(=O)c1ccc(N2CCN(C(=S)Nc3ccc(Oc4ccccc4)cc3)CC2)cc1	-19	1.0	-1.6	-3	0	5.6%
O=C(NCCN1C(=O)S/C(=C\c2ccc(Cl)cc2)C1=O)c1ccc(F)c(S(=O)(=O)N2CCOCC2)c1	-9	0.1	-9.6	-7	0	?
COC(=O)[C@H](CCSC)NC(=O)Nc1ccc(OC)cc1	-1	-1.0	2.3	22	8	-0.1%
CC12CCC(C(=O)N(CCCCN3CCN(Cc4ccccc4)CC3)C1=O)C2(C)C (stereo not given)	35	0.3	-7.8	-36	0	0.6%
CC(=O)OCCN(CCCn1c(-c2ccncc2)nc2ccccc21)c1nc(-c2ccc(C)cc2)cs1	-9	0.8	0.0	-1	4	1.6%
Cc1nc2nc(-c3ccco3)[nH]n2c(=O)c1Cc1ccccc1	-8	0.0	2.2	-3	-12	-1.1%
CCOc1ccc(NC(=O)CSc2nc3ccccc3nc2N2CCCC2)cc1	5	0.7	-6.5	-12	11	11%
COc1ccc(NS(=O)(=O)c2cccc3cccnc23)cc1OC	0	1.1	3.0	3	-7	3.7%
Cc1ccc(NC(=O)c2ncn(CCCN(C)CCc3ccccn3)n2)cc1C	-1	1.3	-1.4	-12	-2	-1.6%
C=C(C)CNC(=S)/N=c1\scc(C)n1CC	-15	3.8	-2.6	-26	-7	-2.7%
COC(=O)c1cc(NC(=O)CC2NC3CCCCC3NC2=O)cc(C(=O)OC)c1 (stereo not given)	2	1.8	-1.1	-2	1	2.2%[38.3 µM]
Cc1onc(-c2c(Cl)cccc2Cl)c1C(=O)N1CCCCC1	1	0.3	-2.8	1	3	-0.6%
